Ba CapD inh: CapD enzyme inhibition; purified CapD enzyme, fluorescence intensity read-out; active compounds read low; some hits fall short of the stated cut; z-score (test concentration not listed); 0.23% of 140,000 active;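 active means z-score under -4 in either of two replicates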;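 further: stock transfer was 100 nL into about 40 µL; score is relative to mean and spread of the plate; one replicate is shown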
AID504770: growth inhibitors of E. coli YBA685 in a screen for V. cholerae RctB (chromosome II replication) inhibitors | E. coli YBA685 rctB-dependent plasmid, OD600 growth, 3 h; active compounds read low | z-score (concentration not given with the values) | 0.27% of 130,000 active;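 active means z-score under -2 on both plates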;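 further: wells of about 30 µL received 100 nL stock; score is relative to mean and SD of the test wells; the first replicate is given; strong numbers were not always called active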
* marks the source's active call; other numbers are inactive results; · = no result given.

SMILES,Ba CapD inh,AID504770
Cc1ccc(CNC(=O)C2CCCN(S(=O)(=O)N3CC(C)CC(C)C3)C2)cc1 (stereo unspecified),0.71,-0.55
N#C/C(=C\c1ccccc1Cl)S(=O)(=O)c1ccccn1,0.06,0.4
COc1ccccc1CNC(=O)CCC(=O)N(C1CC1)C1CCN(Cc2ccccc2)CC1,-0.53,·
Fc1ccc(-c2nc3cc(C(F)(F)F)cc(Cl)c3nc2-c2ccc(F)cc2)cc1,-0.22,·
Cc1cc(C)nc(NC(N)=NCCc2c[nH]c3ccccc23)n1,-0.35,0.05
CC(NC(=O)c1ccc2nc[nH]c2c1)c1ccccc1 (stereo unspecified),-0.32,-0.5
O=[n+]1c2c(n([O-])c3ccccc31)CCC2,-1.2,-3.3*
COc1cc2ccccc2cc1C(=O)NCCC12CC3CC(CC(C3)C1)C2,19,-0.55
Cc1ccc(C(=O)CCC(=O)NC2=NCCS2)cc1,0.41,1.5
Cc1nccc2[nH]c(=O)c(C(=O)NC3CCC(C)CC3)cc12 (stereo unspecified),0.69,-1.1
CCOC(=O)/C(C#N)=N/Nc1ccsc1C(=O)OC,0.16,-0.45
Cc1nc2nc(CC(=O)O)[nH]n2c(=O)c1Br,-0.32,·
NCCNC(=O)c1ccco1,·,-0.45
CCOC(=O)N1CCN(S(=O)(=O)c2cc(Br)cnc2N)CC1,11,1.1
CC(Sc1nc(C2CC2)n(-c2ccccc2)n1)C(=O)Nc1ccnn1C(C)C (stereo unspecified),·,-1.1
CCOC(=O)c1[nH]c2ccccc2c1NC(=O)CCc1ccccc1,20,-0.35
Cc1c(N=C2NC(=O)C(CC(=O)Nc3ccccc3)S2)c(=O)n(-c2ccccc2)n1C (stereo unspecified),0.015,-0.2
CCN1C(=O)/C(=C2/C(=O)N(Cc3ccc(Cl)cc3)c3ccccc32)SC1=S,-2.1,-0.3
O=C1c2c(c3ccccc3n2Cc2ccccc2)CCN1c1ccccc1,0.45,·
CCc1nc(CN2CCN(c3cc(C(F)(F)F)ccn3)CC2)c(C)[nH]1,0.81,-0.55
CCOC(=O)c1cc(C#N)c(C)nc1N1CCN(C(=O)C(C)(C)Cc2cc(C)cc(C)c2C(=O)O)CC1,0.025,·
CCCn1c(=O)c(C(=O)Nn2c(Cc3ccccc3)nc3ccccc3c2=O)c(O)c2ccccc21,3,·
c1ccc(CN2CN=C(Nc3nc4ccccc4s3)NC2)cc1,0.67,-0.8
CCOC(=O)c1ccc(S(=O)(=O)NC2CCCCCCC2)n1C,-0.6,-1.4
O=C(COC(=O)c1ccccc1Cl)c1cc2ccccc2o1,0.26,0.6
OCCCCn1c(-c2ccccc2)cc2ccccc21,32,1.6
COc1ccc(C2=NN(C(C)=O)C(c3cc4ccccc4nc3Cl)C2)cc1OC (stereo unspecified),-0.16,·
O=C1CSC2(C(=O)Nc3ccccc32)N1c1ccc(Br)cc1 (stereo unspecified),0.65,·
O=C(O)COCC(=O)Nc1ccc(-n2ccc(C(F)(F)F)n2)cc1,-0.18,-1.4
Cn1c(=O)c(-c2noc(-c3ccccc3)n2)cn(-c2ccccc2)c1=O,-1,-0.35
NC(=O)NCc1ccc(F)cc1,0.085,·
O=C(O)CCSCc1ccc(Cl)cc1,1.1,-0.45
Cc1nnc2c3ccccc3nc(Nc3ccc4c(c3)OCO4)n12,2,-0.5
CN(C)c1ccc(/C=C(\NC(=O)c2ccccc2)C(=O)NCCCn2ccnc2)cc1,-2,·
Cc1ccc(CNC(=O)c2cc3c(=O)n(C)c4ccccc4c3n2C)cc1,1.9,1.1
COC(=O)c1c(C)nn(-c2ccccc2)c1NC(=O)C(C)Oc1ccc(Cl)cc1 (stereo unspecified),-0.61,1
O=C(Nc1cccc(OC(=O)c2ccc(F)cc2)c1)c1ccc(F)cc1,0.07,-0.05
CCCOc1ccc(NC(=O)C2CC(=O)N(CC)C(=Nc3ccc(F)cc3)S2)cc1 (stereo unspecified),-0.34,·
CCCn1c(N)nc2c1c(=O)n(C)c(=O)n2C,0.31,0.05
O=C(Nc1ccccc1)OC(CN1CCN(c2ccccc2)CC1)C(F)(F)F (stereo unspecified),-0.59,-0.65
Cc1ccc(C(=O)OCC2OC3OC(C)(C)OC3C2O)cc1 (stereo unspecified),0.45,0
c1nc(N2CCOCC2)nc2c1CNCC2,2.1,-0.3
O=C(CCn1cccc1)NCCc1ccccc1,-0.65,-0.45
Fc1ccc(CNC2=NCCS2)cc1,-0.13,1.9
Cc1c(C#N)c(NC(=O)CN2CCCC2c2cccs2)n(C2CCCCC2)c1C (stereo unspecified),·,-0.4
CC(C)(C)n1ncc2c(=O)n(NC(=O)Cc3ccccc3)cnc21,·,0.75
Cc1ccc(/C(O)=C2\C(=O)C(=O)N(c3ccccn3)C2c2ccc(Cl)cc2)cc1 (stereo unspecified),-0.22,·
Fc1ccc(N=Cc2ccccc2F)cc1,-0.06,0.25
O=C(CSc1nnc2c(n1)CCCC2)c1ccc(N2CCCC2=O)cc1,·,-0.5
COc1ccc(/C(C#N)=C/c2c(C(F)(F)F)nn(C)c2Cl)cc1OC,1.5,·
CCOC(=O)C1=C(C)OC(N)=C(C#N)C12C(=O)Nc1ccccc12 (stereo unspecified),0.08,·
O=C(CC1C(=O)N(c2ccccc2)C(=O)N1C1CCCCC1)Nc1ccccc1 (stereo unspecified),0.71,-0.45
NC(=O)C(Cc1ccccc1)N1C(=O)C2C3C=CC(C3)C2C1=O (stereo unspecified),5.9,-0.95
Cc1cccc(NC(=O)CN2C(=O)CSC2=O)c1,·,0.75
COc1ccc(C2C(C#N)=C(N)N(c3cc([N+](=O)[O-])ccc3C)C3=C2C(=O)CC(C)(C)C3)cc1OC (stereo unspecified),0.22,·
CC(C)Nc1nc(C#N)nc(NC(C)C)n1,·,0
COC(=O)c1sccc1-c1ccc(CN2CCC(c3ccccc3OC)CC2)o1,37,-0.8
COc1ccc(C2CCCCCN2C(=O)Cc2nn(C)c(=O)c3ccccc23)cc1 (stereo unspecified),·,0
Cc1cc(CSC(=N)N)cs1,0.12,1.1
S=c1nc(C2CCCCC2)n(-c2ccccc2)[nH]1,·,0.65

Next section:
SMILES,Ba CapD inh,AID504770
Cc1cc(=O)[nH]c(SCC(=O)C2CC2)n1,-0.11,1.5
CC[n+]1cccc(-c2nc3ccccc3s2)c1,0.34,-0.05
CCc1ccc(C(=O)NCc2ccc3c(c2)OCO3)cc1,·,0.05
O=C(NNc1ccc(Cl)cc1)C1CCC1,0.2,-0.65
Cc1c(NC(=O)c2cc3nc(-c4ccccc4)cc(C)n3n2)c(=O)n(-c2ccccc2)n1C,0,·
O=C(c1ccc([N+](=O)[O-])cc1)c1ncc(C(F)(F)F)cc1N1CCOCC1,-0.47,·
CC(C(=O)N1CCN(Cc2ccccc2)CC1)n1sc2ccccc2c1=O (stereo unspecified),-0.44,-1.4
CC(C)NC(=O)CCc1nc2cccnc2n1-c1ccccc1,-0.52,-0.85
CCOC(=O)c1cccc2c3c([nH]c12)C(C(=O)OCC)CCC3 (stereo unspecified),1.1,1.1
O=C(/C=N/O)Nc1cccc(C(=O)O)c1,·,-0.3
CCOC(=O)C1C(=O)CN(c2ccccc2)C1=O (stereo unspecified),2.1,0
O=C(c1cccs1)N1CCN(c2ncnc3sccc23)CC1,0.17,-0.75
O=c1oc2c(o1)=C(c1ccccc1)S(=O)(=O)C=2c1ccccc1,-1.5,1.2
c1ccc(CN2CCN(Cc3ccc4c(c3)OCCO4)CC2)cc1,0.26,0.25
CS(=O)(=O)N(CC(=O)N1CCCCC1)c1ccc(Cl)cc1Cl,-0.64,·
CCN(CC)Cn1c(=O)sc2ccccc21,0.09,-0.5
O=C(ON1C(=O)c2cccc3cccc(c23)C1=O)c1cccnc1,10,-0.65
CN(C)S(=O)(=O)c1ccc(C(=O)Nc2ccccc2)cc1,0.06,-0.85
C=CCNC(=O)C(=O)Nc1ccc(Cl)c(C(F)(F)F)c1,0.43,·
CN(Cc1nc2ccccc2n1C)c1ccccc1,·,2.3
COc1ccccc1-c1nc2ccccc2s1,8.3,-0.5
Cc1nc(N2CCN(c3ccccn3)CC2)c2c(C)c(C(=O)Nc3ccc(Cl)cn3)sc2n1,-0.1,·
CCOc1ccc(C(=O)NCCCN2CCCC2=O)cc1,·,-0.6
CNC(=O)c1c(C)csc1NC(=O)C(F)(F)F,-1.5,-0.85
CCCCCOc1ccc(OC(=O)c2ccncc2)cc1,0.25,1.9
CCc1ccc(C2/C(=C(/O)c3ccc4c(c3)CC(C)O4)C(=O)C(=O)N2CCOC)cc1 (stereo unspecified),-0.15,-0.25
COc1ccc(-c2noc(CN3CCCC(C(=O)Nc4ccc(F)c(Cl)c4)C3)n2)cc1OC (stereo unspecified),0.24,-0.05
O=C(COC(=O)CC1CCCC1)Nc1ccc(Br)cc1F,-0.56,-1.2
O=C(NCc1ccccc1)C1CC(c2ccc(Cl)cc2)=NO1 (stereo unspecified),-0.65,1.4
CSc1scc2c1-c1nc(SCC(=O)c3ccc(Cl)cc3)ncc1CC2,2.5,1.1
C(=Nc1cccc(/N=C/c2ccco2)n1)c1ccco1,1.4,2.5
S=c1[nH]nc(-c2cc(-c3ccccc3)n[nH]2)n1C1CC2C=CC1C2 (stereo unspecified),·,0.2
CC1(C(=O)c2ccccc2)C2c3cc(Br)ccc3OC(=O)C21C(=O)NCc1ccccc1 (stereo unspecified),0.25,0.6
O=C1c2ccccc2C(=O)C1c1ccc(O)cc1,12,2.4
O=C(CSc1nc(O)cc(=O)[nH]1)c1ccc(O)cc1O,·,-0.5
Cc1cc(Cl)nc2ccc(Cl)cc12,·,0.35
N#Cc1cc(Cl)c2c(c1)OCCCO2,·,0.2
CCCc1nc2ccccc2c2c1C(=O)N(NC(=O)c1cccc(OCC)c1)C2=O,-0.08,·
O=S(=O)(c1ccc(-n2cccn2)cc1)N(Cc1ccccn1)Cc1ccccn1,0.025,-0.15
CC(C)c1ccc(-n2nnc3ccccc3c2=O)cc1,0.19,-0.05
CN1C2CCC1CC(OC(=O)C(c1ccccc1)c1ccccc1)C2 (stereo unspecified),-0.13,-0.75
N/C(=N/O)c1nn(-c2ccccc2)nc1N1CCCCC1,-0.31,-0.25
COC(=O)c1ccc(OC(=O)c2ccccc2)cc1,0.1,1.4
CC(C)N(c1nnc(N)s1)C(C)C,-0.5,-0.7
Cc1cc(-c2noc(-c3cc(C)on3)n2)no1,9.2,-0.6
Nc1ccc(C(=O)OCC(=O)Nc2ccc(Br)cc2Br)cc1,-0.31,-0.4
COc1ccc(-c2noc(COC(=O)c3c4ccccc4cc4ccccc34)n2)c(OC)c1,·,-0.25
CCSc1ccsc1C1C(C#N)=C(N)N(c2cccnc2)C2=C1C(=O)CC(C)(C)C2 (stereo unspecified),3.5,-1
COC(=O)C1(CO)NC(c2ccc(Cl)cc2)C2C(=O)N(C)C(=O)C21 (stereo unspecified),·,-0.45
CC1(CO)CSC(Nc2ccc(Cl)c(Cl)c2)=N1 (stereo unspecified),-0.06,1.1
CC(=O)Oc1ccc2c(=O)c(-c3ccc4c(c3)OCCO4)coc2c1,0.12,1.9
COc1cc(C2C(C(=O)Nc3ccc(Br)cn3)=C(C)NC3=C2C(=O)CCC3)cc(OC)c1OC (stereo unspecified),20,·
CCN1CCN(C(=O)CN(c2cccc(C(F)(F)F)c2)S(=O)(=O)c2ccc(C)cc2)CC1,-0.31,-0.7
O=C(c1ccc2nc(N3C(=O)c4ccccc4C3=O)sc2c1)N1CCOCC1,·,0
CC(C)Nc1nc(NC(C)C)nc(N(C)C)n1,·,-0.65
CCOC(=O)c1sc(C#N)c2c1CC(C)(C)CC2=O,-0.18,0
COc1ccccc1NC(=O)c1sc2nc(C)nc(N3CCN(c4ccccn4)CC3)c2c1C,0.28,·
CN1C(C(=O)NC(C)(C)C)=CC(c2cccs2)=NS1(=O)=O,4.3,-0.35
O=C(OCc1ccccc1OC(F)(F)F)N1CCN(c2ncccc2C(F)(F)F)CC1,-0.79,·
O=C(CCCOc1ccccc1)Nn1cnnc1,-0.015,-0.85

Next part
SMILES,Ba CapD inh,AID504770
CN(C)C(=O)COC(=O)c1cncc(Br)c1,·,-0.4
CCOc1ccccc1NC(=O)CSc1nc(N)c(C#N)cc1C#N,8.1,·
CC(=O)NC(CSCc1ccccc1)C(=O)O (stereo unspecified),-0.17,-0.9
COCCNC(=S)N1CCN(S(C)(=O)=O)CC1,0.34,-0.55
COC(=O)CSc1nnc2sc3ccccc3n12,-0.8,-1.1

In the list so far, eight have an aryl thioether with sulfur outside any ring.
SMILES,Ba CapD inh,AID504770
CC(Sc1nc(C2CC2)n(-c2ccccc2)n1)C(=O)Nc1ccnn1C(C)C (stereo unspecified),·,-1.1
O=C(CSc1nnc2c(n1)CCCC2)c1ccc(N2CCCC2=O)cc1,·,-0.5
Cc1cc(=O)[nH]c(SCC(=O)C2CC2)n1,-0.11,1.5
CSc1scc2c1-c1nc(SCC(=O)c3ccc(Cl)cc3)ncc1CC2,2.5,1.1
O=C(CSc1nc(O)cc(=O)[nH]1)c1ccc(O)cc1O,·,-0.5
CCSc1ccsc1C1C(C#N)=C(N)N(c2cccnc2)C2=C1C(=O)CC(C)(C)C2 (stereo unspecified),3.5,-1
CCOc1ccccc1NC(=O)CSc1nc(N)c(C#N)cc1C#N,8.1,·
COC(=O)CSc1nnc2sc3ccccc3n12,-0.8,-1.1

Bioassay records (PubChem)
